Source: PubChem
Bst PK mod – pyruvate kinase (B. stearothermophilus) modulation; Potency, µM; partly purified Bacillus stearothermophilus pyruvate kinase, luminescence ATP production; ribose 5-phosphate activator present at AC10; actives 1.2% (n = 51,000); in the data active means potency below about 11 µM; inconclusive means mostly about 12 µM to 25 µM; inactive means weaker than that;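 the screen sought inhibitors and activators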;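 further: potency means the concentration at half of the fitted maximal effect; scaled between full activation by ribose 5 phosphate and full inhibition by luteolin; about four in five hits inhibit and the cells do not say which; series up to 57 µM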
YjeE inh – YjeE (TsaE) inhibition, E. coli | P0AF67 | purified YjeE, fluorescence polarisation of a bound ADP probe | Potency, µM | actives 0.05% (n = 71,000) | AID 605; active = well fitted falling curve; inconclusive = weaker or top-dose-only fall, or a rising curve; inactive = flat or poorly fitted curve;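 further: top concentration of the series not given in the record; excess ADP was the control for the full effect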
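Fluorescence polarization of a BODIPY Texas Red–ADP probe (2 uM) bound to purified YjeE (10 uM) was read after 15 min room-temperature incubation with compounds. Loss of polarization marks inhibitors; ADP serves as titrated control.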
Numbers without * were called inactive; i = inactive; / = no result given. Some of the compounds tested; count on the stated rates, not on these rows.

SMILES	Bst PK mod	YjeE inh
CCCCn1nnnc1SCC(=O)N1CCN(C(=O)c2ccco2)CC1	>57	i
C=CC(C)(O)CCC=C(C)C (stereo not drawn)	/	i
CCCCNC(=O)OCCNC(=O)Oc1cccc(C)c1	>57	i
COc1ccc(S(=O)(=O)Nc2ccc(C)cc2)cc1OC	>57	i
Cc1cccc(NC2=NC(C)(C)N=C(N)N2)c1C	>57	i
O=C(Cn1ccc(=O)[nH]c1=O)Nc1ccc(C(=O)O)c(O)c1	/	i
COCCNc1ncnc2ccc(-c3ccccc3C(F)(F)F)cc12	/	i
CCOC(=O)c1cnn(-c2ncnc3sc(CC)cc23)c1N	/	i
CSc1nc(C2CC2)cc(-c2cccs2)c1C#N	>57	i
CCOc1ccc(/C=N/n2cnnc2)cc1	/	i
CCCNC(=O)Cc1cc(=O)[nH]c(=O)[nH]1	/	i
COc1ccc(-n2c(=O)c(-c3cccc(C#N)c3)nc3cnc(N4CCNCC4)nc32)cc1	/	i
Cc1cccc(C)c1NC(=O)C1CC(=O)N(C(C)C)C1 (stereo not drawn)	>57	i
CCOC(=O)N1CCC(NC(=O)CCc2c(C)nc3c(c(C)nn3-c3ccccc3)c2C)CC1	/	i
OC[C@@H]1O[C@@H](n2cnc3c(NC4CCCC4)ncnc32)[C@H](O)[C@H]1O	/	i
COC(=O)c1[nH]c2cccc(OC)c2c1NC(=O)CN1CCN(c2cccc(OC)c2)C(C)C1 (stereo not drawn)	>57	i
NC(=O)c1cnn2c1NC(c1ccc(F)cc1)CC2C(F)(F)F (stereo not drawn)	>57	i
Cc1ccc2oc(=O)c3cnn(CC(=O)N(CCC(C)C)Cc4ccco4)c3c2c1	/	i
c1coc(CNCC2OCCc3ccccc32)c1 (stereo not drawn)	>57	i
CC(C)c1nc(SCC(=O)N2CCN(c3ccccc3)CC2)c2c(=O)n(C)c(=O)n(C)c2n1	/	i
Cc1nc2nc(Cc3ccccc3)[nH]n2c(=O)c1Cl	>57	i
CCn1c(=N)n(CC(=O)C23CC4CC(CC(C4)C2)C3)c2ccccc21	>57	i
CCCSc1nc2c(cnn2-c2ccc(Cl)cc2)c(=O)[nH]1	>57	i
CCOC(=O)CSc1nc2sc3c(c2c(=O)n1CC)CC(C)(C)OC3	/	i
CCCn1c(C)nc2c(NC(C)CCCN(CC)CC)nc(C)nc21 (stereo not drawn)	/	i

Exported field by field: part of the list above
smiles: CC(C)c1nc(SCC(=O)N2CCN(c3ccccc3)CC2)c2c(=O)n(C)c(=O)n(C)c2n1
  Bst PK mod: /
  YjeE inh: i
smiles: COc1ccc(-n2c(=O)c(-c3cccc(C#N)c3)nc3cnc(N4CCNCC4)nc32)cc1
  Bst PK mod: /
  YjeE inh: i
smiles: COc1ccc(S(=O)(=O)Nc2ccc(C)cc2)cc1OC
  Bst PK mod: >57
  YjeE inh: i
smiles: NC(=O)c1cnn2c1NC(c1ccc(F)cc1)CC2C(F)(F)F (stereo not drawn)
  Bst PK mod: >57
  YjeE inh: i

More compounds:
SMILES	Bst PK mod	YjeE inh
COc1ccc(COC(=O)C2=C(C)NC(=O)NC2c2ccc(O)c(OC)c2)cc1 (stereo not drawn)	/	i
CC(=O)c1c(C)nc(-c2ccc(Cl)cc2Cl)n1O	>57	i
COc1ccc(C(O)c2nc3ccccc3n2C)cc1OC (stereo not drawn)	/	i
CCOC(=O)CSc1nnc(CNC(=O)Cc2ccccc2)n1C	>57	i
Cc1ccc(Cl)cc1N1CCN(CC(=O)Nc2ccc3[nH]c(=O)[nH]c3c2)CC1	>57	i
C/C(=C1/SC(=S)N(CCC(=O)O)C1=O)c1ccc(O)cc1	/	i
C=CCn1c(SCC(=O)OCc2ccccc2)nc2c1c(=O)n(C)c(=O)n2C	>57	i
O=C(CC(c1ccccc1)c1cc(Br)ccc1O)NCc1ccco1 (stereo not drawn)	>57	i
CCOc1cc(S(=O)(=O)NCc2ccco2)c(OCC)cc1-n1cnnn1	>57	i
O=C(CN1CCN(c2nc(-c3ccccc3)cs2)CC1)Nc1ccc2c(c1)OCO2	>57	i
CS(=O)(=O)N(CC(=O)N1CCN(c2ccccc2F)CC1)c1cccc(C(F)(F)F)c1	/	i
CN1CCN(C(=O)c2cccc(S(=O)(=O)N3CCCCC3)c2)CC1	>57	i
CCOC(=O)C1CCCN(Cc2cccc(Cl)c2)C1 (stereo not drawn)	>57	i
COc1ccccc1C(=O)NCc1ccc2c(c1)OCO2	/	i
O=C1CCCC(O)=C1C(C#Cc1ccccc1)C1=C(O)CCCC1=O	>57	i
O=C(C1CCCN1S(=O)(=O)c1cccc2cccnc12)N1CCc2ccccc21 (stereo not drawn)	/	i
Cn1cccc1C(=O)N1CCC[C@@]2(CCN(C(=O)Nc3cccc(C#N)c3)C2)C1	/	i
O=C(CCCc1ccccc1)N1CCc2ccccc21	/	i
COc1ccc(CCNc2c(N)n(Cc3ccccc3)c(=O)[nH]c2=O)cc1OC	>57	i
CCCc1nc(SCC(=O)NCc2ccco2)c2c(=O)n(C)c(=O)n(C)c2n1	/	i
CCN(CC)[C@@H](C)CN1c2ccccc2Sc2ccccc21	/	i
C=C(CO)[C@H]1Cc2c(ccc3c2O[C@H]2COc4cc(OC)c(OC)cc4[C@@H]2C3=O)O1	/	i
O=C(COc1ccc(Cl)cc1Cl)NC1CCSC1=O (stereo not drawn)	/	i
CCC(=O)Nc1cccc(-c2nnc(SCC(=O)c3ccccc3)n2C)c1	/	i
COc1ccc(C(=O)Nn2c(C3CCC3)nc3ccccc3c2=O)c(OC)c1	>57	i
The results go on.
SMILES	Bst PK mod	YjeE inh
CN1c2ccccc2-c2nc3ccccc3n2C1c1ccncc1 (stereo not drawn)	>57	i
COc1ccc(OCC(=O)Nc2cc(-c3nn4c(C)nnc4s3)ccc2C)cc1	/	i
COc1cc(C)nc(NS(=O)(=O)c2ccc(C)cc2)n1	>57	i
CN(Cc1ccc(OC(F)F)cc1)C(=O)c1ccc2nccnc2c1	/	i
Cc1cc(Cl)cc(Br)c1OCCNCC(C)O (stereo not drawn)	/	i
COc1nc(OC/C(N)=N/O)nc(N2CCOCC2)n1	>57	i
COc1ccc(OC)c(N=C2C(=O)Nc3ccccc32)c1	/	i
CC(=O)N1CCC2(CC1)CN(c1ccccn1)C2	/	i
Cc1cccc(-n2c(O)c(C=Nc3ccccc3N)c(=O)[nH]c2=O)c1	/	i
COc1cccc(-c2nn(-c3ccccc3)cc2C(=O)NCC(=O)O)c1	/	i
CCOC(=O)c1c(C)[nH]c(C(=O)Cn2c(=O)oc3ccccc32)c1C	>57	i
Cc1ccc2c(c1)N(CCC(=O)NCCCOC(C)C)C(=O)C(C)O2 (stereo not drawn)	>57	i
COc1ccc(-c2ccc(-c3nnc(Cc4ccc(OC)c(OC)c4)o3)cc2)cc1	>57	i
CS(=O)(=O)N1CCC(C(=O)Nc2cc(C(F)(F)F)ccc2Cl)CC1	>57	i
Cc1cc(NCCN2CCOCC2)n2ncc(-c3ccc(Cl)cc3)c2n1	>57	i
O=C(NCC1COCCO1)C1CCN(S(=O)(=O)c2ccccc2)CC1 (stereo not drawn)	>57	i
Cc1nc2cc(NC(=O)NCc3ccc4c(c3)OCO4)ccc2o1	>57	i
CCOC(=O)c1ccc(NC(=O)NS(=O)(=O)c2ccc(C)cc2)cc1	/	i
CCOCCCNC(=O)CN(Cc1ccc(Cl)cc1)S(C)(=O)=O	>57	i
CC(=O)O[C@H]1CC[C@@]2(C)[C@@H](CC[C@@]3(C)[C@H]2C(=O)C=C2[C@H]4C[C@](C)(C(=O)OCCN5CCCCC5)CC[C@]4(C)CC[C@@]23C)C1(C)C	/	i
CC(C)c1nc2sc3c(SCC(=O)NCc4ccco4)ncnc3c2c2c1CCC2	>57	i
CNc1nc2c(c(=O)[nH]c(=O)n2C)n1CCOC	>57	i
CCOC(=O)Cn1cc(C(=O)C2CC2)c2ccccc21	>57	i
Nc1c(C(=O)NCc2cccnc2)sc(=S)n1-c1ccccc1	/	i
Oc1cc(Cc2ccccc2)cnc1CN1CCOCC1	/	i
Next part:
SMILES	Bst PK mod	YjeE inh
O=C(Nc1ccc(OC(F)(F)F)cc1)C1CCCN(S(=O)(=O)c2cccnc2)C1 (stereo not drawn)	>57	i
Cc1ccc(-n2c(=O)c(C#N)cc3c(=O)n4ccccc4nc32)cc1	>57	i
Oc1ccc(-c2onc(C(F)(F)F)c2-c2cscn2)c(O)c1	>57	i
CC(=O)N[C@H](Cc1c[nH]c2ccccc12)C(=O)O	/	i
O=C1c2ccccc2C(=O)N1c1ncccn1	>11	/
CCc1ccc(NS(=O)(=O)c2cccs2)cc1	>57	i
Cc1cc(=O)[nH]c(SCC(=O)C23CC4CC(CC(C4)C2)C3)c1C#N	>57	i
CCOC(=O)c1c(C)[nH]c(C(=O)CSc2ccccc2)c1C	i	i
Cn1cnnc1SCC(=O)Nc1sc2c(c1C#N)CCCCC2	>57	i
CC(C)C(=O)N1CCN(CCN=CC2=C(O)CC(c3ccco3)CC2=O)CC1 (stereo not drawn)	>57	i
O=C(O)c1cccc(N2CCCC2=O)c1	>57	i
CC1CN(C(=O)CN2C(=O)c3ccccc3C2=O)CC(C)O1 (stereo not drawn)	>57	i
COc1ccc(N2C(=O)CC(Sc3nccc(C)n3)C2=O)cc1 (stereo not drawn)	/	i
COc1cccc(CNc2nc3nc(C)c(Cl)c(C)n3n2)c1	>57	i
O=C(O)C1CC=CCC1C(=O)Nc1cccc(F)c1 (stereo not drawn)	/	i
CCOC(=O)c1cccc(NC(=O)CSc2nc(N)cc(N)n2)c1	>57	i
CCCOC(=O)c1ccc(NC(=O)c2cnccn2)cc1	>57	i
Cc1ccc(-c2nsc3c(N4CCC(C(N)=O)CC4)ncnc23)cc1	>57	i
Cc1cc2ccc(OC(=O)c3ccc(N=C(N)N)cc3)cc2oc1=O	/	i
CCOC(=O)c1c(C)nn(Cc2cccc(Cl)c2)c1N	>57	i
O=C(CSc1nc2ccsc2c(=O)n1-c1ccccc1)N1CCCC1	>57	i
CCN(c1ccccc1)c1nc2ccsc2c(=O)s1	>57	i
CC(C)(C)OC(=O)N1CCC(C(=O)N2CCC[C@H]2C(=O)O)CC1	>57	i
O=C(O)CCNc1ncnc2nc[nH]c12	/	i
CCCS(=O)(=O)N1CCCC(C(=O)NC2CCCC(C)C2C)C1 (stereo not drawn)	>57	i

Copied from above, 6 compounds:
SMILES	Bst PK mod	YjeE inh
CCOC(=O)c1c(C)nn(Cc2cccc(Cl)c2)c1N	>57	i
O=C(CSc1nc2ccsc2c(=O)n1-c1ccccc1)N1CCCC1	>57	i
CCN(c1ccccc1)c1nc2ccsc2c(=O)s1	>57	i
CC(C)(C)OC(=O)N1CCC(C(=O)N2CCC[C@H]2C(=O)O)CC1	>57	i
O=C(O)CCNc1ncnc2nc[nH]c12	/	i
CCCS(=O)(=O)N1CCCC(C(=O)NC2CCCC(C)C2C)C1 (stereo not drawn)	>57	i

Next records follow.
SMILES	Bst PK mod	YjeE inh
CCOC(=O)c1c(C)oc2ccc(OCC(=O)N(CC)CC)cc12	>57	i
Cc1ccc(NC(=O)c2cc(NC(=O)c3ccco3)ccc2N2CCCCC2)cc1	/	i
CCCCc1nc(NCCNC(=O)c2ccco2)c(C#N)c2c1CSC(C)(C)C2	>26	/
CCOC(=O)CN1CC23C=CC(O2)C(C(=O)Nc2ccc(F)c(C)c2)C3C1=O (stereo not drawn)	>57	i
Cc1cccc(NC(=O)CSc2nnc(-c3ccccc3Br)o2)c1C	>57	i
CCOC(=O)c1nnn(-c2nonc2N)c1-c1cccc2ccccc12	>57	i
Cc1ccc(N(CC(=O)Nc2ccc3c(c2)OCCO3)S(=O)(=O)c2c(C)noc2C)cc1	>57	i
COc1ccc(C(=O)Nc2nccs2)cc1OC	/	i
O=S(=O)(NCc1cccnc1)c1cc(Cl)ccc1Cl	/	i
CS(=O)(=O)N1CCC2(CCN(c3cccc(-c4ccccc4)c3)CC2)CC1	/	i
CCOC(=O)c1ccc(NS(=O)(=O)N2CCCCCC2)cc1	>57	i
CCOC(=O)CNc1ncnc2nc[nH]c12	/	i
Cc1ccc(NC(=O)CSC2=C(C#N)C(c3ccc4c(c3)OCO4)C3=C(CCCC3=O)N2)c(C)c1 (stereo not drawn)	/	i
NC(=O)CCCCC(N)=O	/	i
COCc1cc(C)nc(SCC(=O)Nc2ccccc2C)c1C#N	>57	i
CCC(OC(=O)c1cc2sccc2n1C)C(=O)NCC1CCCO1 (stereo not drawn)	>57	i
Nc1cc(Cl)c(N)c(Cl)c1	/	i
CN(C)CC/C=C1\c2ccccc2COc2ccccc21	/	i
Nc1cc(N)nc(SCCOc2ccccc2)n1	/	i
O=C(c1ccccc1)c1ccc(C(=O)N2CCOCC2)cc1	/	i
CCCC(=O)c1ccc(N2CCN(S(=O)(=O)c3ccccc3)CC2)c(F)c1	/	i
CC1(C)CC(=O)C2=C(C1)OC(N)=C(C#N)C21CCN(Cc2ccccc2)CC1	>57	i
O=C(CCS(=O)(=O)c1ccc(Cl)cc1)N1CCN(S(=O)(=O)c2cccs2)CC1	>57	i
O=C(Nc1ccc2oc(-c3ccncc3)nc2c1)c1c(F)c(F)c(F)c(F)c1F	>57	i
COc1ccccc1CC(=O)N(CCC#N)CCC#N	>57	i
O=C(NCc1cccc(C(F)(F)F)c1)C1CCN(c2ncccn2)CC1	>57	i
Cc1ccc(S(=O)(=O)NCc2ccc(C(=O)N3CCN(c4ccccn4)CC3)cc2)cc1	>57	i
C(=N\n1cnnc1)/c1ccc(OC2CSC2)cc1	/	i
CC1=C(C)C(=O)NC(Nc2nc(C)c3cc(C)cc(C)c3n2)N1 (stereo not drawn)	>57	i
COc1ccccc1-c1cc(=O)c2cc(O)ccc2o1	/	i
